Screens deposited in PubChem BioAssay by National Center for Advancing Translational Sciences (NCATS).
VDR inh: inhibitors of human vitamin D receptor. P11473. VDR-SRC2-3 peptide fluorescence polarization, 2 h. Potency, µM, for inactives: max response, negative = inhibition, usual class: inhibitors. 400,000 compounds, 0.93% hits. AID 504847; active = well fitted inhibition curve with a large enough effect; inconclusive = small, poorly fitted or top-dose-only effect, or another doubt; inactive = no such curve, though single readings can be large or run the other way; also: series mostly up to about 120 µM
Target sequence (P11473 whole entry, looked up): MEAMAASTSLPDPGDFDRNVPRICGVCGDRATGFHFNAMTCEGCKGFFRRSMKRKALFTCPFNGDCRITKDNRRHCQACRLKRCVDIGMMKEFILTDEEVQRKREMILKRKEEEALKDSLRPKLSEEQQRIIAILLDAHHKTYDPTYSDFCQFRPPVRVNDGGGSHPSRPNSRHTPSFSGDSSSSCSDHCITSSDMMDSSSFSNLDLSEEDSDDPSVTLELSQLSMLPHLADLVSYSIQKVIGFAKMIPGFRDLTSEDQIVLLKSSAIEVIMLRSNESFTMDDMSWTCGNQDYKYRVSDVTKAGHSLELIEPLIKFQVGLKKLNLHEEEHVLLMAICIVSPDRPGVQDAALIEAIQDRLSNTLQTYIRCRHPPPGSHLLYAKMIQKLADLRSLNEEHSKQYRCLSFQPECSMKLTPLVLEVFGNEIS
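Fluorescence polarization assay of small-molecule disruption of VDR binding to coregulator peptide SRC2-3. Compounds and controls pin-transferred, then read after 2 h incubation at ambient room temperature.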
The depositor's hits bear a star; u = inconclusive. % is scaled to controls: 0 for no effect and ±100 for the full control effect; potency is read from the fitted curve at half-maximal effect.

VDR inh	molecule
9.4%	COc1ccc(Nc2c3ccccc3nc3ccccc23)cc1
1.5%	CC(C)=CCN1CCNC(=O)C1CC(=O)NCc1nc(C)c(C)s1 (centres undefined)
8.6%	CSCC[C@H](NC(=O)[C@H](CC(C)C)NC(=O)CNC(=O)[C@H](Cc1ccccc1)NC(=O)[C@H](Cc1ccccc1)NC(=O)[C@H](CCC(N)=O)NC(=O)[C@H](CCC(N)=O)NC(=O)[C@@H]1CCCN1C(=O)[C@H](CCCCN)NC(=O)[C@@H]1CCCN1C(=O)[C@H](CCCN=C(N)N)NC(=O)CCCCC1SCC2NC(=O)NC21)C(N)=O (some centres undefined)
-16.9%	CCOC(=O)c1c(NC(=S)Nc2ccc(C)cc2)sc2c1CCC2
-6.4%	COc1cccc(Oc2nc3c(c(=O)n(Cc4ccccc4Cl)c(=O)n3C)n2C)c1
-10.2%	Cc1c(C(=O)Nc2ccccc2)sc2ncn(CC(=O)N3CCCCC3)c(=O)c12
6.8%	O=C(/C=C/c1ccc(Cl)cc1)N(c1ccccn1)C1CCCCC1
3.4%	COc1cccc(NC(=O)CN(C)C(=O)CSc2ccc3c(c2)OCCO3)c1

(next part)
VDR inh	molecule
-29.5%	Cc1nc2c(-c3ccc(F)cc3)c(C)nn2c(C)c1CCC(=O)NC(C)CCc1ccco1 (centres undefined)
-12.9%	CCn1c(SCC(=O)NCc2cccs2)nnc1-c1cccs1
-6.6%	C/C(=N\N1CCN(c2ccccc2)CC1)c1ccncc1
-3.8%	CCOC(=O)CSc1nc(C(C)(C)C)cc(C(F)(F)F)c1C#N
-5.4%	O=C(N/N=C/c1cccc(OC2CSC2)c1)c1ccccc1O
17.9%	Cc1ccc(NC(=O)c2cccc(S(=O)(=O)N3CCCc4ccccc43)c2)nc1
1.3%	Cc1ccc(CNC(=O)c2cccc(-n3cnnn3)c2)cc1
8.5%	O=C(COC(=O)Cc1ccc(Br)cc1)NC1CCCC1

(list continues)
VDR inh	molecule
-0.2%	Cc1nc2ccn(Cc3cccs3)c(=O)c2cc1C(=O)Nc1ccccc1
10.5%	Cc1cc(C)c(S(=O)(=O)NCC(c2ccc(N(C)C)cc2)N2CCOCC2)c(C)c1 (centres undefined)
5.8%	CCn1nc(C)c(C2C(C#N)=C(N)Oc3n[nH]c(C)c32)c1C (centres undefined)
4.9%	O=C(Cc1ccccc1)NNC(=O)C1CCN(c2ncccn2)CC1
-9.9%	CN(C)c1ccc(NC(=O)CSc2nnc(-c3cccs3)n2Cc2ccco2)cc1
-0.3%	CCCNS(=O)(=O)c1cc2c(cc1Br)CCN2C(=O)CC
6.0%	O=C(CSc1ncnc2c1nnn2Cc1ccccc1F)NCC1CCCO1 (centres undefined)
6.3%	Cc1ccccc1NC(=O)CN(C)S(=O)(=O)c1cccc2nsnc12

(cont.)
VDR inh	molecule
-11.6%	Cc1cccc(OCC(=O)NNC(=O)c2cc(S(=O)(=O)N(C)C)ccc2N2CCCC2)c1
14.9%	CC(Sc1nnc(-c2ccco2)n1N)C(=O)NC1CCCCC1C (centres undefined)
-4.9%	O=C(NC(Cc1ccccc1)C(=O)N1CCCC(C(F)(F)F)C1)c1ccccc1 (centres undefined)
5.1%	COC(=O)C1=C(C)N=C2SC(C#N)=C(N)N2C1c1ccc(OCc2ccccc2)cc1 (centres undefined)
-1.7%	CSc1cccc(NC(=O)c2cc(S(=O)(=O)N3CCCCC3)c[nH]2)c1
-7.3%	Cc1cc(NC(=O)C(C)SCC(=O)N(C)CC(=O)Nc2ccc(F)cc2)no1 (centres undefined)
-17.6%	Cc1ccc2oc(=O)c3cnn(CC(=O)N4CCN(c5cccc(C(F)(F)F)c5)CC4)c3c2c1
12.5%	O=S(=O)(c1ccc(SCc2cccc(Cl)c2)nc1)N1CCCC1

Next structures.
VDR inh	molecule
-5.7%	COc1ccc(-c2nn(-c3ccccc3)cc2/C=N/O)cc1
-3.0%	COc1ccc(NC(=O)CN(C)C(=O)c2ccccc2CCc2ccccc2)cc1
-6.7%	COc1ccc(C(=O)c2cn(CC(=O)Nc3cc(OC)cc(OC)c3)c3ccc(OC)cc3c2=O)cc1
0.7%	COc1ccc(N2CCN(c3nccs3)CC2)cc1
8.6%	Cc1ccc2c(C)c(C(=O)Nc3c(C)n(C)n(-c4ccccc4)c3=O)oc2c1C
-5.7%	O=C(NNC(=O)c1cccnc1)Nc1ccc(Cl)c(Cl)c1
-13.7%	COc1ccc(Cl)cc1NC(=O)CSc1nc2ccsc2c(=O)n1CC1CCC(C(=O)O)CC1 (centres undefined)
-0.1%	CCOC(CC(=O)NNC(=O)c1c(-c2c(Cl)cccc2Cl)noc1C)OCC

Seven compounds out of the list above, sorted by the number in VDR inh, low to high:
Compound	VDR inh
Cc1nc2c(-c3ccc(F)cc3)c(C)nn2c(C)c1CCC(=O)NC(C)CCc1ccco1 (centres undefined)	-29.5%
CCn1c(SCC(=O)NCc2cccs2)nnc1-c1cccs1	-12.9%
O=C(NC(Cc1ccccc1)C(=O)N1CCCC(C(F)(F)F)C1)c1ccccc1 (centres undefined)	-4.9%
O=C(CSc1ncnc2c1nnn2Cc1ccccc1F)NCC1CCCO1 (centres undefined)	6.0%
Cc1ccc2c(C)c(C(=O)Nc3c(C)n(C)n(-c4ccccc4)c3=O)oc2c1C	8.6%
Cc1cc(C)c(S(=O)(=O)NCC(c2ccc(N(C)C)cc2)N2CCOCC2)c(C)c1 (centres undefined)	10.5%
Cc1ccc(NC(=O)c2cccc(S(=O)(=O)N3CCCc4ccccc43)c2)nc1	17.9%

The list continues.
VDR inh	molecule
u	Cc1ccc(-c2cc(-c3ccc(Cl)cc3)c(C#N)c(N)n2)o1
2.8%	Cc1cc2ccc3ccccc3c2cc1CN(C)C
0.6%	O=C(Nc1ccc(S(=O)(=O)Nc2nccs2)cc1)c1c(F)c(F)c(F)c(F)c1F
-8.3%	COc1ccc(/C=[N+](\[O-])C2N(c3ccccc3)C(=S)SC2(C)C)cc1OC (centres undefined)
-23.1%	Cc1ccc(CNC(=O)CSc2nc3[nH]ncc3c(=O)[nH]2)cc1
-20.6%	COc1ccccc1CN1CCN(Cc2nc(-c3ccc(C)cc3)oc2C)CC1
-4.9%	COc1ccc(N(CC(=O)Nc2ccccc2OC)S(=O)(=O)c2ccccc2)cc1Cl
2.3%	COC(=O)c1ccc(S(=O)(=O)N2CCN(C)CC2)n1C

New compounds follow
VDR inh	molecule
-0.1%	Cc1ccc(SCc2ccc(C(=O)N3CCCC3)cc2)cc1
u	CC1=C(C(=O)OCC(C)C)C(c2cccs2)NC(=S)N1 (centres undefined)
-15.7%	Cc1cc(NC(=O)Nc2ccc(Cl)cc2)no1
1.4%	CCSc1nnc(NC(=O)CSc2nc(CC)nc3c2c(=O)n(C)c(=O)n3C)s1
-11.3%	Cc1ccc(-c2nn3c(C)nnc3c3ccccc23)cc1S(=O)(=O)N1CCN(CCO)CC1
-13.0%	CC(NC(=O)c1cc(S(=O)(=O)N2CCOCC2)ccc1N1CCCC1)c1ccc(Cl)c(Cl)c1 (centres undefined)
-15.0%	O=[N+]([O-])c1ccc(C2(O)CN(c3ccccc3)C3=[N+]2CCS3)cc1 (centres undefined)
8.1%	O=C(NCC(=O)N(Cc1ccco1)C(C(=O)NC1CCCC1)c1ccncc1)c1cccs1 (centres undefined)

Going on with the list:
VDR inh	molecule
2.2%	Cc1ccc(C)c(NC(=O)C2CC(=O)N(C(C)C)C2)c1 (centres undefined)
5.2%	CCCOC(=O)Cc1c(O)c2ccccc2[nH]c1=O
-4.2%	CN1CCN(c2ccc(Nc3c4ccccc4nc4ccccc34)cc2)CC1
-8.0%	Cc1cc(NC(=O)c2cn(C3CCCCC3)c(=O)c3c2c2ccccc2n3C)no1
-30.8%	O=C(Nc1nccs1)c1ccc(-c2cccc([N+](=O)[O-])c2)o1
-15.8%	CC(C)Cn1c(/C=C/c2ccccc2)nc2ccccc21
-1.4%	Cc1nc2c(cnn2CCO)c(=O)[nH]1
3.7%	CCOc1ccc(NC(=O)c2oc3ccccc3c2NC(=O)C(C)Oc2ccccc2)cc1 (centres undefined)

Quoted at random: two entries already listed.
VDR inh	molecule
1.4%	CCSc1nnc(NC(=O)CSc2nc(CC)nc3c2c(=O)n(C)c(=O)n3C)s1
0.6%	O=C(Nc1ccc(S(=O)(=O)Nc2nccs2)cc1)c1c(F)c(F)c(F)c(F)c1F

Following part.
VDR inh	molecule
-16.6%	CCOC(=O)c1c(NC(C)=O)sc2c1CCC(C=O)=C2Sc1ccccc1
4.3%	CC(C)N(Cc1ccccc1)C(=O)C1CCCN(c2ncnc3c2nc2n3CCCCC2)C1 (centres undefined)
11.2%	O=C(COC(=O)c1ccc(Br)o1)Nc1ccc(N2CCOCC2)cc1
-6.8%	COc1cccc(/C=N/NC(=O)c2nc(-c3ccccc3)cc(-c3ccccc3)n2)c1O
-3.7%	COc1ccc(C(=O)NNC2=NCCCCC2)cc1
4.9%	O=C(CN1c2ccccc2Sc2ccccc21)N/N=C/c1ccccc1
-3.8%	COc1c(C)cccc1C(=O)Nc1ccc(N2CCN(S(C)(=O)=O)CC2)cc1
3.1%	CCOc1ccccc1NC(=O)CSc1nnnn1Cc1ccccc1

Next part.
VDR inh	molecule
8.1%	COc1ccc(OCC(=O)Nc2cc(C)c(Cl)cc2OC)c([N+](=O)[O-])c1
-1.5%	CCC(=O)Nc1cc(Cl)ccc1C(=O)O
1.7%	CCn1c(SCC(=O)Nc2oc(C)c3c(C)n[nH]c(=O)c23)nc2sc(C)c(C)c2c1=O
3.0%	CCCc1cc(=O)[nH]c2nnc(SCC(=O)Nc3ccc(OC)cc3)n12
15.8%	CC(=O)Nc1cc[n+](C(C)C(=O)c2ccc(Cl)cc2)cc1 (centres undefined)
-10.5%	COc1cccc(-n2cnnn2)c1
2.2%	O=C(CN1C(=O)NC2(CCCCCC2)C1=O)N1CCN(c2ccccc2)CC1
-3.2%	O=[N+]([O-])c1ccc(N2CCN(C(=S)Nc3ccc(F)cc3F)CC2)cc1

Other records.
VDR inh	molecule
-2.2%	COc1ccccc1-n1cnnc1SCC(=O)N1CCOCC1
-17.3%	Cc1ccc(S(=O)(=O)N2CCN(C(=O)COC(=O)c3cccc(Cl)c3)CC2)c(C)c1
10.5%	Cc1ccc(C(=O)NN2C(=O)C3C4C=CC(C4)[C@@H]3C2=O)cc1 (some centres undefined)
1.3%	Cc1cc(NS(=O)(=O)c2ccc(NC(=O)c3ccoc3C)cc2)nc(C)n1
7.9%	COc1ccc(-c2nc(-c3ccccc3)nc(Cl)c2C#N)cc1
-18.6%	Cc1cccc(Cn2c(O)c(N=NC(=S)Nc3ccccc3F)c3ccccc32)c1
-2.1%	Cc1ccc(C(C)C)c(OCCCn2c(=O)oc3ccc(C)cc32)c1
-13.7%	O=C(CCC(=O)OCCCC(F)(F)C(F)(F)F)Nc1ccccc1

Further compounds follow:
VDR inh	molecule
8.0%	Cc1c(C(=O)OCC(=O)Nc2c(C)n(C)n(-c3ccccc3)c2=O)cccc1[N+](=O)[O-]
31.6µM*	O=C(O)COc1ccc(/C=C/c2nc3ccc([N+](=O)[O-])cc3s2)cc1
10.5%	CCC(C)[C@H](NC(=O)NCc1ccccc1Cl)C(=O)O (some centres undefined)
-16.0%	COCCN(Cc1ccc(C)c(Br)c1)S(=O)(=O)c1ccc2[nH]c(=O)ccc2c1
-6.8%	Cc1nn(-c2ccccc2)c(N)c1-c1ccccc1
-12.8%	COCCCNC(=O)/C=C/c1c(Cl)cccc1Cl
1.5%	CCc1ccc(CNC(=O)c2sc3ncccc3c2-n2c(C)ccc2C)cc1
9.6%	CC(=O)N1c2c(cc(Br)cc2S(=O)(=O)NCc2ccccc2)CC1C (centres undefined)

Additional entries.
VDR inh	molecule
-11.5%	Cc1c(NC(=O)CN2C(=O)NC(C)(c3ccc4c(c3)OCCO4)C2=O)c(=O)n(-c2ccccc2)n1C (centres undefined)
-5.1%	Cc1cc(C(=O)NNC(=O)CCCCC(=O)NNC(=O)c2cc(C)[nH]n2)n[nH]1
25.2%	NC(=O)CC(NC(=O)Cc1cccc2ccccc12)c1ccc(NC2CC3CCC2C3)c([N+](=O)[O-])c1 (centres undefined)
9.5%	O=C(OCC(=O)N1CCCc2ccccc21)c1cccnc1Cl
-4.1%	CCS(=O)(=O)N1CCC2(CC1)OC(=O)C(C)=C2C(=O)NCc1cccc(Cl)c1
-10.2%	CC(C)(COC(=O)Nc1ccccc1)COC(=O)Nc1ccccc1
10.5%	COc1ccc(C(=O)OCC(=O)NCc2ccc3c(c2)OCO3)cc1S(=O)(=O)N1CCOCC1
-16.4%	CCOc1cc(CNCCO)cc(Br)c1OCc1ccccc1

Next records follow.
VDR inh	molecule
-11.4%	Cc1ccc(NC(=O)c2cc(-c3ccccc3O)n[nH]2)cc1C
-7.1%	COc1cccc(NC(=O)N(Cc2c[nH]c3ccccc23)C2CCCCCC2)c1
-7.1%	CCc1cccc(NC(c2ccccc2)c2nnc(-c3ccccc3F)o2)c1 (centres undefined)
-1.5%	CC(=O)N[C@@H](CSC(=O)[C@]1([C@@H](O)C(C)C)NC(=O)[C@H](C)[C@@H]1O)C(=O)O
-1.7%	Cc1cc(OCC(=O)N2CCCCCC2)ccc1[N+](=O)[O-]
5.9%	Cc1nn(-c2ccccc2)c2nc(N)c(C#N)c(-c3ccc(F)cc3)c12
8.4%	O=C(N/N=C/c1cccc(O)c1)c1csc2ccccc12
-10.7%	CC1=CS(=O)(=O)CC1Sc1nc2ccccc2[nH]1 (centres undefined)

(further entries)
VDR inh	molecule
-23.7%	COc1ccc(CCNC(=O)CCCn2c(=O)c3cccn3c3cccnc32)c(OC)c1
1.2%	O=S(=O)(NCCc1cn2ccsc2n1)c1ccc(Cl)cc1
-29.8%	COC(=O)Nc1ccc(SCC(=O)c2ccccc2)cc1
-17.4%	Clc1ccc2nc(CSc3nc4ccccc4o3)cn2c1
1.2%	O=C(NCc1cccs1)C(Cc1ccccc1)n1cccc1 (centres undefined)
-17.2%	COc1cccc(N/C(SCc2ccccc2Cl)=C(/C#N)C(=O)NCc2cccs2)c1

This is a subset; the hit share may differ from the screen's.
